Screening results as filed in PubChem.
ugtP null kill: growth inhibition of ugtP-null S. aureus, primary screen, RN4220 ugtP deletion, OD600; AID 1259309, 2017; growth inhibition, % (concentration not given with the values); 330,000 compounds, 0.54% hits; 16 h; some inactives read as strong as hits;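 active = z-score under -3 and OD600 up to 0.15 on both plates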;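 also: plate controls were untreated wells for no effect and antibiotic for full effect; wells of about 80 µL received 100 nL stock; the first replicate is given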
PrP UTR inh: inhibition of PrP 5' UTR reporter expression. cell-based PrP 5' UTR mRNA reporter, plate reader. inhibition, % (test concentration not listed). 340,000 compounds, 0.35% hits. AID 488862, 2010;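 active = every replicate at 50% or more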;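 also: 0 = median of the neutral control wells; tested in H4 reporter cells; numbers are from one replicate; inactives centre near -14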
BJeLR lethal: MLPCN primary cell-based screen for lethality selective to Ras in HRASV12 cells; 300,000 compounds, 0.17% hits; inhibition, % (no concentration beside the values); BJeLR (HRASV12) viability, CellTiter-Glo ATP luminescence, 48 h; reference of the scale not given here;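 active = replicate mean above 50%; inconclusive = above 50% but judged a plate artefact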;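 also: 50 nL library stock added to about 25 µL; numbers are from one replicate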
Autofluor counter: flagged as autofluorescent in microsphere protease counterscreen; compound autofluorescence counterscreen, microsphere flow cytometry; hits give high values; fluorescence intensity (test concentration not listed); 360,000 compounds, 3.1% hits;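 active = at least 3 SD above the mean of all compounds, about 16000 in these data; inconclusive = too few beads counted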;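 also: 100 nL of 1 mM stock went into each well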
Sa RN4220 lethal: growth inhibition of S. aureus RN4220, primary screen, OD600; 16 h; inhibition, % (no concentration beside the values); 330,000 compounds, 0.33% hits; AID 1259311, 2017;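 active = z-score of -3 or lower and OD600 up to 0.18 on both plates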;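 also: plate controls were untreated cells for no effect and reference antibiotic for full effect; stock transfer was 100 nL into about 80 µL; one replicate is shown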
Mtb hypoxia inh: PubChem AID 1159583. M. tuberculosis hypoxia-regulated fluorescent reporter, fluorescence. fluorescence inhibition, % (no concentration beside the values). 300,000 compounds, 0.1% hits;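 active = 35 to 45% if threefold the growth effect, above 45% if 1.5-fold the growth effect; inactive = the rest, general growth blockers included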;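 also: wells of about 50 µL received 100 nL stock; 0% = vehicle wells and 100% = reference inhibitor wells; whole bacteria with a GFP reporter of the hypoxia response; strong numbers were not always called active; many hits fall short of the cut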
Mtb hypoxia inh growth: recorded beside Mtb hypoxia inh, whose call it bears; growth inhibition, %; measured here: M. tuberculosis growth (absorbance);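 0% = vehicle and 100% = reference antibiotic; read after six days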
The depositor's hits bear a star; u = inconclusive; x = no result given.

SMILES	ugtP null kill	PrP UTR inh	BJeLR lethal	Autofluor counter	Sa RN4220 lethal	Mtb hypoxia inh	Mtb hypoxia inh growth
COC(=O)c1c(NC(=O)C2Cc3ccccc3C(=O)O2)sc2c1CCCC2 (stereo not drawn)	0	-20	-2	2719	2.7	-2	9
CCCCn1c(=O)[nH]c(=O)c2c1nc(-c1ccc3ccccc3c1)n2CC	10	-10	-3	3406	1.8	2	-1
CCOC(=O)N1CCN(c2cc(C)c([N+](=O)[O-])cc2F)CC1	-6	-23	-2	4710	7.3	2	16
CCC(CC)C(=O)Nc1nnc(S(=O)(=O)N2c3ccccc3CC2C)s1 (stereo not drawn)	5	-1	10	5881	8.2	5	9
COc1cc(C=NN2CCCCC2)cc([N+](=O)[O-])c1O	-1	x	x	x	1.1	4	-1
CN(Cc1ccccc1)C(=O)CSc1nc2ccccc2c(=O)n1Cc1ccco1	3	-3	11	9142	4.7	-4	3
CCOC(=O)C1=C(C)NC(=O)NC1c1ccccc1Cl (stereo not drawn)	-3	-35	1	8778	7.6	-75	-5
COc1ccccc1/C=C/CN1CCOCC1	2	12	4	22191*	3.2	8	10
COc1cc(OC)c2ccc(=O)oc2c1C(CC(=O)N1CCOCC1)c1ccc(N(C)C)cc1 (stereo not drawn)	2	-20	-8	4366	3.2	-1	1
CCCCN1CCC2C=CCC(C(=O)Nc3ccc(OC)cc3)C2C1=O (stereo not drawn)	1	x	x	x	2.5	2	2
O=C(O)Cc1sc(Nc2cccc3ccccc23)nc1-c1ccc(F)cc1	-13	-27	8	4699	14	-4	-1
c1cncc(-c2nnc(-c3cccs3)o2)c1	8	-30	2	9576	3.3	11	12
COc1ccc(S(=O)(=O)N2CCCC2C(=O)Nc2ccc(C)cc2)cc1 (stereo not drawn)	13	-18	0	3396	1.6	19	13
Cn1c(=O)c2c(nc(N3CCc4ccccc4C3)n2Cc2ccc(Br)cc2)n(C)c1=O	-11	-10	1	5198	-0.2	x	x
CC(=O)c1cc(C#N)c(SCC(=O)Nc2nccs2)nc1C	2	-72	-3	3971	0.9	13	-7
COc1ccc(CCC2CCNCC2)cc1	10	-7	10	3619	5.0	9	-1
O=S1(=O)C[C@@H](O)[C@@H](Nc2ccc(Cl)cc2)C1	-5	-22	-2	9445	3.6	8	9
COc1cccc(NC(=O)C2CCN(c3cnccn3)CC2)c1	6	-25	0	3708	-1.9	-3	3
Cc1cccc(NC(=S)N(Cc2cccc(Br)c2)CC2CCC(C(=O)O)CC2)c1 (stereo not drawn)	15	-7	-4	4371	3.2	19	-2
c1ccc(-c2nc(N3CCOCC3)cc(N3CCOCC3)n2)cc1	7	-15	-8	4649	1.4	-4	18

Some values from the list.
CCOC(=O)N1CCN(c2cc(C)c([N+](=O)[O-])cc2F)CC1 | ugtP null kill: -6
CCCCN1CCC2C=CCC(C(=O)Nc3ccc(OC)cc3)C2C1=O (stereo not drawn) | Mtb hypoxia inh: 2
O=C(O)Cc1sc(Nc2cccc3ccccc23)nc1-c1ccc(F)cc1 | BJeLR lethal: 8

Further records.
SMILES	ugtP null kill	PrP UTR inh	BJeLR lethal	Autofluor counter	Sa RN4220 lethal	Mtb hypoxia inh	Mtb hypoxia inh growth
Cc1cccc(CS(=O)(=O)Cc2ccc(C(=O)NC3CCCC3)o2)c1	1	-3	4	5831	0.3	6	-4
Cc1cccc(C(=O)OCC(=O)NCc2cccs2)c1	3	-8	-2	2010	-0.8	-10	-2
CCC(CC)C1C(C#N)=C(N)Oc2cc(C)oc(=O)c21 (stereo not drawn)	-1	-33	8	10343	4.1	7	5
O=C(NCc1cccc(C(F)(F)F)c1)C1CC(c2ccccc2C(F)(F)F)=NO1 (stereo not drawn)	-12	-11	-11	3952	5.7	9	9
Cc1cccc(CSc2nn3c(=O)c(C)nnc3s2)c1	2	-21	2	8288	6.1	5	4
CC1CC2(CCCCC2)Nc2ccc3ccccc3c21 (stereo not drawn)	46	-9	-2	2318	-2.7	10	5
Cc1ccc(CNC(=O)Cc2cccs2)cc1	11	-34	1	4014	-3.0	x	x
CCOC(=O)N1CCN(C(=O)/C=C/c2ccc(OC)c(OC)c2)CC1	-2	-6	6	4138	2.6	-9	11
CCn1nnc(NC(=O)C(c2ccccc2)c2ccccc2)n1	2	-8	6	3200	5.7	6	1
COc1ccc(/C=C/c2cccc[n+]2C)c(O)c1	6	-8	2	3604	1.5	1	-1
CCOC(=O)CSc1cc(=O)n(CC)c2ccccc12	0	-12	4	3854	2.6	10	3
Cc1ccc(C(=O)NC(CCc2ccccc2)C(=O)O)cc1 (stereo not drawn)	9	-29	x	3063	5.2	-1	-1
O=C(Nc1ccc(N2CCN(c3ccc(C(F)(F)F)cn3)CC2)nc1)c1cccs1	4	-12	-4	4226	6.3	14	2
Cc1ccc(-c2[nH]nc3c2C(c2ccoc2)C(C#N)=C(N)O3)cc1C (stereo not drawn)	-16	-22	-4	10213	3.9	7	12
Cc1cccc(NC(=O)c2cccnc2)c1C	1	-17	-20	4161	2.9	4	0
O=C(NC(=S)NCCC1=CCCCC1)c1ccco1	6	-28	-1	4523	7.8	3	4
COC(=O)c1ccc(-n2cncn2)c([N+](=O)[O-])c1	2	-2	7	u	6.4	-7	2
Cc1nnsc1S(=O)c1ccccc1Cl (stereo not drawn)	8	x	16	2870	1.0	3	-8
COc1ccc(OC)c2c(C)cc(N3CCN(C(=O)c4ccc(Cl)cc4)CC3)nc12	2	3	2	11893	1.9	6	5
O=C(Cn1c(COc2ccccc2)nc2ccccc21)Nc1cc(Cl)cc(Cl)c1	-15	-9	-4	2349	3.4	6	6
COc1ccc(C(=O)NC(=S)N2CCNC(=O)C2)cc1Br	0	-7	-1	4281	3.4	6	3
CCCNS(=O)(=O)c1ccc(OCC(=O)Nc2ccc3c(c2)OCO3)cc1	5	-4	0	3906	1.5	-2	-4
O=c1cc(N2CCCCC2)c(-c2ccccc2)nn1Cc1cccc(Cl)c1	2	-20	2	2286	-1.5	x	x
O=C1NC(=O)C(Cc2ccccc2)(c2cccnc2)N1 (stereo not drawn)	-2	-10	0	3260	-1.1	-1	-6
O=S1(=O)CC/C(=N\O)c2ccccc21	x	-13	0	23882*	x	x	x
COc1cccc(CC2(CO)CCCN(CC3=Cc4cc(Cl)ccc4OC3)C2)c1 (stereo not drawn)	-7	-31	5	3585	4.6	4	-12
CC1(C(=O)NC(=S)NNC(=O)c2ccncc2)CCCCC1	-2	0	9	2466	27	8	5
Cc1ccc(Sc2nnc(-c3ccccc3)cc2C#N)cc1	5	-10	3	2135	0.9	x	x
CCOC(=O)NN=Cc1ccc([N+](=O)[O-])s1	12	x	x	x	2.3	-5	-1
CC(C)CNS(=O)(=O)c1ccc(CCC(=O)NCCC2=CCCCC2)cc1	0	-22	6	4939	2.1	-4	-1
Cc1ccc(-c2nnn(CC(=O)N(Cc3ccco3)C(C(=O)NC(C)(C)C)c3ccc(C)o3)n2)o1 (stereo not drawn)	4	-3	-1	4529	-1.1	-10	7
CCOC(=O)CC(=O)CSc1nc(-c2ccc3c(c2)OCO3)cc(C(F)(F)F)c1C#N	5	-46	6	9865	4.0	8	6
COC(CNC(=O)C(=O)NCC1OCCN1C(=O)c1ccc(Cl)cc1)OC (stereo not drawn)	-5	-3	-7	5988	-9.4	0	13
CCOC(=O)c1nn(-c2ccc(C)cc2)c(C)c1C(C)=O	12	-16	-6	6954	2.7	11	8
CC(=O)c1ccc2c(c1)CC(C)C(=O)N2C (stereo not drawn)	2	-19	4	10944	0.8	0	-1
CCn1c(O)c2ccc(C(=O)N=NC(=O)c3cccnc3)cc2c1O	-1	-12	2	22380*	1.8	1	5
O=C(COCc1cc(-c2ccc3c(c2)OCO3)on1)N1CCCCC1	7	-44	-9	4400	1.0	-4	-8
Cc1ncc(CN2CCCC(C(=O)Nc3ccc(-c4cscn4)cc3)C2)cn1 (stereo not drawn)	x	-6	-3	4751	x	x	x
CSc1nncc(-c2ccc(F)c(F)c2)n1	-7	-36	-16	4351	-1.6	6	7
CC1CCCCC1NC(=O)c1ccc(NS(=O)(=O)c2ccc3[nH]c(=O)[nH]c3c2)cc1 (stereo not drawn)	6	-11	3	5242	3.8	4	6
CC(NC(=O)C1CCC(CNS(=O)(=O)c2ccccc2)CC1)c1ccc2c(c1)OCCO2 (stereo not drawn)	-1	x	3	x	3.2	10	11
CNc1nc2c(Cl)cc(Cl)cc2s1	14	-8	-9	6150	1.3	2	21
O=C(Cc1cccs1)NCc1ccccc1F	5	-66	-11	21726*	1.0	10	8
O=C(NN1CCOCC1)c1c(-c2ccccc2)sc2ccccc12	-2	-18	x	4388	4.1	10	17
COc1cccc(/C=C/C(=O)OCC(=O)NCc2ccc(Cl)cc2)c1	-9	-7	9	4729	-3.2	-8	0
Cc1ccc(C2=NOC(C)(c3nnc(-c4ccc(Cl)cc4)o3)C2)cc1 (stereo not drawn)	15	-16	-5	3381	4.3	8	13
CN(C)CCn1c(C(=O)O)cc2ccccc21	10	-11	-2	4186	-0.6	x	x
CCOC(=O)c1cnc(-n2nc(C)cc2C)nc1NCCO	-5	-20	-14	22604*	-0.2	-5	-7
O=C(CCc1ccccc1)Nc1nc2c(F)cc(F)cc2s1	0	-24	-6	4543	-0.5	-14	7
CCn1c2ccccc2c2cc(NC(=O)COC(=O)c3cc(S(=O)(=O)N4CCCCC4)ccc3Cl)ccc21	-5	-22	3	1828	6.9	2	8
CC1=C(C(=O)Nc2cccc([N+](=O)[O-])c2)C2(CCC(C)CC2)OC1=O (stereo not drawn)	-7	-8	6	2121	1.7	3	6
CCOC(=O)C1CCN(CC(O)COCc2ccc3c(c2)OCO3)CC1 (stereo not drawn)	8	-25	9	4435	-0.1	15	16
CCc1nnc(NC(=O)CN2C(=O)c3ccccc3C2=O)s1	4	0	8	6667	-0.5	9	5
CCOc1ccc(NC(=O)c2ccc3c(c2)CCN3S(C)(=O)=O)cc1	x	-20	7	3894	x	x	x
O=C(/C=C/c1cccc([N+](=O)[O-])c1)N1CCN(c2ccc(F)cc2)CC1	x	-23	-2	9663	x	x	x
S=c1[nH]nc(-c2ccncc2)n1N=C/C=C/c1ccco1	0	x	x	x	2.2	4	0
Cc1cc(C)n(-c2cc(N3CCN(C(=O)c4cccc(Br)c4)CC3)ccc2[N+](=O)[O-])n1	12	-8	5	4117	-0.2	x	x
COc1ccc(C(=S)N2CCN(c3ccccc3C)CC2)cc1	12	-7	4	4568	0.5	11	-7
Cn1c(SCC(=O)NCCc2ccccc2)nnc1C1CCCCC1	6	-3	0	4260	3.6	0	-1
Cc1ccc(C(=O)NN=Cc2ccc3c(c2)OCO3)cn1	5	x	x	x	0.7	3	2

(more compounds)
SMILES	ugtP null kill	PrP UTR inh	BJeLR lethal	Autofluor counter	Sa RN4220 lethal	Mtb hypoxia inh	Mtb hypoxia inh growth
CCOC(=O)c1c(C)[nH]c(C)c1S(=O)(=O)N1CCN(c2ccc(F)cc2)CC1	5	-4	10	5815	-1.0	-2	-3
O=C(Nc1nncs1)c1ccc(S(=O)(=O)c2ccccc2)cc1	6	5	6	3224	5.9	3	1
CCc1ccc(C(c2c(C)nn(-c3ccccc3)c2N)c2c(C)nn(-c3ccccc3)c2N)cc1	-26	-16	-14	10985	8.5	3	6
O=C(O)CC(NC(=O)C12CC3CC(CC(C3)C1)C2)c1ccc(OC2CCCC2)cc1 (stereo not drawn)	7	-23	0	3399	-8.0	-9	0
COc1ccccc1C1=NOC(C)(c2sc(-c3ccccc3)nc2C)C1 (stereo not drawn)	8	-6	-2	3956	14	16	10
CCn1c(-c2csc3ccccc23)n[nH]c1=S	7	-36	7	7662	5.5	8	10

Record cards, as listed above. Order of screens: ugtP null kill, PrP UTR inh, BJeLR lethal, Autofluor counter, Sa RN4220 lethal, Mtb hypoxia inh, Mtb hypoxia inh growth
`CC(=O)c1ccc2c(c1)CC(C)C(=O)N2C` (stereo not drawn) across the screens: 2, -19, 4, 10944, 0.8, 0, -1
`Cc1ccc(-c2nnn(CC(=O)N(Cc3ccco3)C(C(=O)NC(C)(C)C)c3ccc(C)o3)n2)o1` (stereo not drawn) across the screens: 4, -3, -1, 4529, -1.1, -10, 7
`O=C(NN1CCOCC1)c1c(-c2ccccc2)sc2ccccc12` across the screens: -2, -18, x, 4388, 4.1, 10, 17
`CCOC(=O)c1nn(-c2ccc(C)cc2)c(C)c1C(C)=O` across the screens: 12, -16, -6, 6954, 2.7, 11, 8
`O=C(/C=C/c1cccc([N+](=O)[O-])c1)N1CCN(c2ccc(F)cc2)CC1` across the screens: x, -23, -2, 9663, x, x, x
